MEX-5 binding – MEX-5 zinc finger RNA-binding disruptors – biochemical, C. elegans, fluorescence polarization, MLPCN library, primary screen | Zinc finger protein mex-5 (Caenorhabditis elegans), Q9XUB2 | MEX-5/FITC-TCR2 RNA binding; stronger effect = lower value | activity score (negative = inhibition of binding), % at 10 µM | 300,000 compounds, 0.38% hits;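 active = inhibition past about -25% in most replicates, and total fluorescence under double the plate's negative control median, limit read from the data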;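 also: 0% = DMSO and -100% = 5 µM competing unlabeled TCR2 RNA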
PME-1 inh – PME-1 inhibitors via competitive probe labeling, primary screen, biochemical, fluorescence polarization, FP-Rh probe, HTS; recombinant PME-1; inhibition, % at 5.9 µM; 320,000 compounds, 0.53% hits; Protein phosphatase methylesterase 1 (Homo sapiens), Q9Y570;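 active = inhibition above the campaign mean of all compounds plus 3 SD, cut at about 26% in these data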;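 also: competitive labeling of PME-1 active site by serine hydrolase directed probe; 0% = PME-1 with DMSO and 100% = wells lacking PME-1 enzyme; inhibitors block probe labeling so polarization falls and inhibition rises; many of its hits are not listed in these tables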
AHR activator – AHR activators, primary screen, cell-based, luminescence, luciferase reporter, human; Aryl hydrocarbon receptor (Homo sapiens), P35869; 320,000 compounds, 2.5% hits; activation, % at 5 µM; AHR-responsive luciferase reporter cells; in the data active = activation above about 47%;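 also: 0% = vehicle wells and 100% = reference agonist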
BCLXL inh – inhibitors of human Bcl-xL, primary screen, biochemical, fluorescence polarization, HTS; Bcl-2-like protein 1 (Homo sapiens), Q07817; GST-Bcl-xL / FITC-Bim BH3 peptide fluorescence polarization; inhibition, % at 10.9 µM; 320,000 compounds, 0.7% hits;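 active = inhibition above the mean of all tested compounds plus 3 SD, cutoff set per campaign, cut at about 30% in these data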;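 also: 0% = DMSO wells and 100% = unlabeled Bim-BH3 peptide competitor; inhibitors lower millipolarization by displacing the labeled peptide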
Target sequence (Q07817 whole entry, looked up): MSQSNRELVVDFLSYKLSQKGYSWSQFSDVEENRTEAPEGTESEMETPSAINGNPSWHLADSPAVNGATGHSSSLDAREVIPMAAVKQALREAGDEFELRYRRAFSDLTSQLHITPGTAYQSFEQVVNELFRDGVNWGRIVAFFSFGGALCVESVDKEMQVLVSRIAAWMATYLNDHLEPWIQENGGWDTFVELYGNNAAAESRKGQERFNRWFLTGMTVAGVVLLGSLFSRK
GLD-1 TGE inh – GLD-1/TGE RNA complex disruptors, primary screen, biochemical, fluorescence polarization; 320,000 compounds, 0.44% hits; purified GLD-1 + fluorescein TGE RNA; Female germline-specific tumor suppressor gld-1 (Caenorhabditis elegans), Q17339; inhibition, % at 5.96 µM;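 active = percent inhibition above a per-plate cutoff, the plate mean of test compounds plus 3 SD, cut at about 30% in these data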;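 also: 0% = DMSO wells with GLD-1 and probe and 100% = wells lacking GLD-1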
Target sequence (Q17339 whole entry, looked up): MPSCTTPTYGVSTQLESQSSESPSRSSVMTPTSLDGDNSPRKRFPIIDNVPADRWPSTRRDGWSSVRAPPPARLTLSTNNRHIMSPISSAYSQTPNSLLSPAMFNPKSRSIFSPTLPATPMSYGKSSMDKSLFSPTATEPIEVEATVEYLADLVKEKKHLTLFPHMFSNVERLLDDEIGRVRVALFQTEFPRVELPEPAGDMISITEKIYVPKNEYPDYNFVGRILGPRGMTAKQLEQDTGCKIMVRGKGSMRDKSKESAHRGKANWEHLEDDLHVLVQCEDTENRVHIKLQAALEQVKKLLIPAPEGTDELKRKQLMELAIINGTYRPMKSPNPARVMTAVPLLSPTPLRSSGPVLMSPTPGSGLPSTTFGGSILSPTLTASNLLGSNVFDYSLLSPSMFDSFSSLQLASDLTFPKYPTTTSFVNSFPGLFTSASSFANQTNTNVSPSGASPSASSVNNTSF
Fam108B inh – mouse Fam108B serine hydrolase inhibitors, primary screen, counter-screen for RBBP9 inhibitor project, biochemical, fluorescence polarization; recombinant Fam108B, FP-Rh probe fluorescence polarization; inhibition, % at 9.51 µM; 300,000 compounds, 0.33% hits; AID 1947, 2009;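 active = inhibition above the screen mean inhibition plus 3 SD, computed separately per campaign, cut at about 18% in these data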;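 also: inhibitors lower polarization as less probe binds the enzyme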
PAFAH1B2 inh – PAFAH1B2 enzyme inhibitors, primary screen, biochemical, fluorescence polarization, human. inhibition, % at 3.39 µM. 340,000 compounds, 1.2% hits. recombinant PAFAH1B2, FP-rhodamine activity probe;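 active = inhibition above the mean of all tested compounds plus 3 SD, cut at about 24% in these data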;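 also: 0% = enzyme with DMSO and 100% = wells lacking PAFAH1B2; many of its hits are not listed in these tables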
Target sequence (P68402 whole entry, looked up): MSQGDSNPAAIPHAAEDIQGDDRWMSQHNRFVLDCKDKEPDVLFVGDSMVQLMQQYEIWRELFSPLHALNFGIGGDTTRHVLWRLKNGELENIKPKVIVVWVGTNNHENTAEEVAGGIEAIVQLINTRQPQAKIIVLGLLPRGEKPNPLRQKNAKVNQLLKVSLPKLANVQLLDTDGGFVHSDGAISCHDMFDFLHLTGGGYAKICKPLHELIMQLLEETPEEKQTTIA
MCL1 BIM primary – inhibitors of MCL1 binding to BIM-BH3, primary screen, biochemical, fluorescence polarization; Induced myeloid leukemia cell differentiation protein Mcl-1 (Homo sapiens), Q07820; GST-MCL1 / FITC-Bim-BH3 fluorescence polarization; inhibition, % at 10.9 µM; 320,000 compounds, 0.68% hits; AID 2057, 2009;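 active = inhibition above the mean inhibition of all tested compounds plus 3 SD, set per campaign, cut at about 40% in these data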;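 also: 0% = DMSO wells and 100% = unlabeled Bim-BH3 peptide control; higher means more loss of mP so more displacement of Bim peptide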
* hit, by the source's call; x = not tested or not shown.

SMILES | MEX-5 binding | PME-1 inh | AHR activator | BCLXL inh | GLD-1 TGE inh | Fam108B inh | PAFAH1B2 inh | MCL1 BIM primary
CC(=O)C(C)Oc1ccc2c3c(c(=O)oc2c1)CCCCC3 (stereo not given) | -1.9 | -1.1 | 7.7 | 3.7 | -3.5 | 0.7 | 1.2 | -0.6
COc1ccc(S(=O)(=O)Nc2ccc(Cc3ccncc3)cc2)cc1OC | 2.0 | 14.7 | -0.7 | 6.7 | 13.1 | 3.9 | -3.5 | 2.9
CCN(CC)c1ccc(C(=O)OCC(=O)Nc2cccc(S(=O)(=O)NC3=NCCCCC3)c2)cc1 | 0.7 | 4.7 | 1.9 | -3.7 | 4.8 | 3.3 | 5.1 | -12.3
CCC(CC)NC(=O)/C=C/c1ccccc1Cl | 1.6 | 2.3 | 27.9 | 1.6 | -5.4 | -3.6 | -3.7 | 0.5
O=C(/C=C/c1cccc([N+](=O)[O-])c1)c1ccc2c(c1)OCCO2 | -1.3 | 0.8 | -2.3 | -4.9 | -4.1 | -5.3 | 4.2 | -3.9
CC(C)(CNC(=O)c1cccc(S(=O)(=O)Nc2ccc(Br)cc2)c1)N1CCOCC1 | 0.3 | -0.6 | 3.1 | 3.2 | -2.0 | 0.8 | 10.0 | 1.8
Cc1nn(-c2ccccc2)c(C)c1NC(=O)COC(=O)c1cc(Br)ccc1O | 1.9 | -4.0 | -1.0 | -4.7 | 6.1 | 0.7 | -2.0 | -10.4
O=C(c1ccc(Cl)cc1)c1cc(-c2ccccn2)c(N2CCOCC2)s1 | 0.1 | 12.6 | 8.8 | -0.2 | 7.2 | 4.1 | 1.7 | 3.5
Cc1nc2ccc(S(=O)(=O)Nc3ccc(-c4nc5cccnc5s4)cc3)cc2s1 | -7.7 | -8.1 | 68.6* | -2.1 | -8.6 | -0.1 | 9.3 | -13.9
O=C(NCC1(N2CCOCC2)CCCCC1)c1cccc(S(=O)(=O)Nc2ccc(F)cc2)c1 | x | 3.4 | 1.0 | 2.4 | 2.7 | x | 21.6 | 2.3
N#CCSc1nc2ccccc2c(=O)n1-c1ccccc1 | -1.1 | -0.1 | -1.0 | 2.0 | 8.8 | 2.4 | 5.9 | 2.6
O=c1c2cn[nH]c2nc(SCc2ccccc2F)n1-c1ccc(Br)cc1 | -1.9 | 3.9 | 0.8 | -4.2 | -5.8 | -4.2 | 1.2 | -1.5
COc1ccc(S(=O)(=O)Nc2cccc(F)c2C)cc1C(=O)N1CCOCC1 | -1.1 | -3.9 | 0.3 | 1.8 | -2.5 | -2.8 | -0.1 | 2.4
Cc1cccc(Oc2ccc(NS(=O)(=O)c3ccc(C)c(C(=O)O)c3)cc2)c1 | x | 1.4 | 1.8 | 2.5 | 4.9 | x | 3.4 | 3.3
CCCCC[C@H]1CN(Cc2ccccc2)C(=O)[C@@H]1CC(=O)NCc1ccccc1 | 0.8 | 6.0 | -2.4 | 4.1 | 1.1 | 5.5 | 7.8 | 4.2
O=C(/C=C/c1cccc([N+](=O)[O-])c1)c1ccco1 | 1.4 | 0.1 | -0.2 | 4.9 | 1.1 | 5.2 | -1.1 | 7.7
COc1ccc(-c2nc3ccccc3n2Cc2ccc(C)cc2)cc1 | -1.3 | 5.4 | 7.5 | 4.6 | 1.3 | -5.7 | 2.6 | 4.6
COc1ccc(-c2sc3ccccc3c2-c2ccc(O)cc2)cc1 | x | x | 24.9 | x | 10.2 | x | 2.7 | x
O=C(CCOc1ccccc1)Nc1cccc(S(=O)(=O)Nc2ccccc2Cl)c1 | -2.0 | -8.4 | 6.0 | 6.3 | -7.0 | 4.2 | 3.8 | 7.3
COc1ccc(NS(=O)(=O)c2ccc(N3CCOCC3)c(NC(=O)c3ccccc3Cl)c2)cc1 | -5.3 | 0.4 | -1.3 | 2.7 | -0.1 | -3.0 | 1.0 | 3.1
Cc1cc(Br)c(NC(=O)COC(=O)CC2CC3CCC2C3)c(Br)c1 (stereo not given) | x | x | 0.5 | x | 9.2 | x | 8.5 | x
COCCCNc1nc2ccccc2nc1NS(=O)(=O)c1ccc(C)c(C)c1 | -3.4 | 2.2 | 2.9 | -3.2 | 6.2 | -1.0 | 2.2 | 4.1
O=C(CN1c2ccccc2Sc2ccccc21)NNC(=S)Nc1ccc(Cl)cc1 | -0.9 | -5.9 | 1.2 | 9.8 | 4.1 | 3.8 | 13.2 | 5.9
COc1ccc(NC(=O)CSc2nc(O)cc(=O)n2-c2ccccc2OC)cc1 | 3.8 | -3.9 | -3.7 | -3.1 | -1.6 | -5.3 | 1.1 | -3.1
Cc1ccccc1N1C(=O)CC(N(O)c2ccccc2)C1=O (stereo not given) | -0.3 | -2.6 | 3.4 | 0.6 | -2.0 | 1.9 | 3.1 | 1.1
O=C(COC(=O)Cc1ccsc1)Nc1ccc(Cl)cc1F | x | x | -0.1 | x | 4.2 | x | 7.8 | x
CCN(CC(=O)NCc1cccs1)C(=O)c1ccc(S(=O)(=O)Nc2cccc(C)c2C)cc1 | 1.0 | 3.9 | -1.7 | 2.1 | 5.7 | -3.1 | 5.0 | 4.3
O=C(/C=C/c1c(Cl)cccc1Cl)NCc1ccco1 | -0.5 | -0.1 | -3.9 | -0.9 | 6.3 | 3.1 | -4.8 | 8.5
COc1ccc(C(=O)OCC(=O)NC2CC2)cc1S(=O)(=O)Nc1ccc(C)cc1 | x | 5.9 | 1.4 | -3.0 | 6.1 | x | -2.5 | -6.2
CCOC(=O)c1ccccc1NC(=O)CSc1nnc(Cc2cccn2C)n1-c1ccc(C)cc1 | 5.4 | -0.2 | 1.1 | -5.1 | -2.0 | -3.1 | 3.0 | -0.9

Reformatted: results already given
Values run as follows: MEX-5 binding, PME-1 inh, AHR activator, BCLXL inh, GLD-1 TGE inh, Fam108B inh, PAFAH1B2 inh, MCL1 BIM primary
O=c1c2cn[nH]c2nc(SCc2ccccc2F)n1-c1ccc(Br)cc1
→ -1.9, 3.9, 0.8, -4.2, -5.8, -4.2, 1.2, -1.5
CCN(CC)c1ccc(C(=O)OCC(=O)Nc2cccc(S(=O)(=O)NC3=NCCCCC3)c2)cc1
→ 0.7, 4.7, 1.9, -3.7, 4.8, 3.3, 5.1, -12.3
COc1ccc(-c2sc3ccccc3c2-c2ccc(O)cc2)cc1
→ x, x, 24.9, x, 10.2, x, 2.7, x

(more compounds)
SMILES | MEX-5 binding | PME-1 inh | AHR activator | BCLXL inh | GLD-1 TGE inh | Fam108B inh | PAFAH1B2 inh | MCL1 BIM primary
O=C(CC1CCCC1)Nc1cc(S(=O)(=O)N2CCOCC2)ccc1O | x | -7.6 | 1.5 | 4.6 | 1.0 | x | 6.5 | -1.4
CSc1ccccc1NC(=O)COC(=O)Cc1ccsc1 | x | x | 26.9 | x | -3.1 | x | 8.6 | x
CCOc1ccc(NS(=O)(=O)c2ccc(C(=O)NCCCN3CCCC3=O)cc2)cc1 | 0.6 | 5.3 | -0.4 | 1.6 | -2.9 | 0.6 | -1.1 | -4.2
CN(Cc1ccccc1)S(=O)(=O)c1ccc(OCC(=O)NCc2ccccn2)cc1 | 1.4 | -0.2 | 0.1 | 2.5 | -2.8 | 0.7 | 3.7 | -4.8
CCn1c(C)nc2cc(C(=O)N/N=C(\C)c3ccc(N4CCOCC4)cc3)ccc21 | 0.5 | -7.2 | -2.7 | 0.1 | -1.1 | 0.2 | 0.8 | -7.0
CCCN(CC(=O)Nc1ccccc1OC)C(=O)c1cccc(S(=O)(=O)Nc2ccc(OC)cc2)c1 | -0.7 | -3.3 | 4.6 | 6.8 | 0.0 | 2.3 | 7.5 | 4.3
Cc1ccc(NC(=S)NNC(=O)c2ccc(N3CCOCC3)c([N+](=O)[O-])c2)cc1Cl | -0.6 | 3.5 | -0.1 | 5.7 | 5.0 | 6.6 | 4.5 | 12.1
CC1(C)CC(C(CCN(Cc2ccccc2)C(=O)c2ccco2)c2ccc(F)cc2)CCO1 (stereo not given) | -1.4 | 8.2 | 0.1 | 3.2 | 4.8 | 5.3 | 0.3 | 0.5
CN(C)C=NC(=O)c1ccc(N2CCN(c3ncc(C(F)(F)F)cc3Cl)CC2)cc1 | 0.0 | 1.0 | -3.0 | 0.9 | 3.6 | 0.3 | -0.1 | -4.0
CCc1cc2ccc(C)cc2nc1SCC(=O)Nc1cc(OC)c(OC)cc1C(=O)O | -1.4 | 1.6 | -0.4 | 7.4 | 2.0 | 4.0 | 2.3 | 16.5
Cc1cccc(C(=O)N/N=C/c2ccncc2)c1 | -1.2 | 0.7 | 9.5 | -2.4 | -1.5 | 0.7 | -0.9 | -0.8
CCOc1ccc(NS(=O)(=O)c2ccc(C(=O)NCC(c3ccco3)N(C)C)cc2)cc1 (stereo not given) | -0.7 | -1.1 | -0.4 | 0.8 | 0.4 | 3.1 | -0.9 | 0.4
Cc1ccc(NS(=O)(=O)c2ccc3c(c2)CCN3C(=O)CCC(=O)O)cc1Cl | 0.8 | -16.7 | 3.1 | 3.8 | -7.2 | 0.4 | 3.1 | -2.6
Cc1ccc(NS(=O)(=O)c2cccc(C(=O)NCC(c3cccs3)N(C)C)c2)cc1 (stereo not given) | 5.1 | -5.0 | 6.1 | -6.0 | 15.6 | -0.4 | 1.5 | -0.3
O=C(CSCc1ccc(Cl)cc1)Nc1cc([N+](=O)[O-])ccc1O | 1.5 | 5.1 | 0.4 | 1.9 | -2.1 | -2.5 | 57.6* | 2.3
O=C(O)c1cccc(S(=O)(=O)Nc2ccc(Oc3ccccc3)cc2)c1 | x | x | 2.7 | x | -2.2 | x | 9.5 | x
COc1ccc(C(CNC(=O)c2cccc(S(=O)(=O)Nc3ccc(C)cc3)c2)N2CCOCC2)cc1 (stereo not given) | -4.2 | 1.4 | 5.2 | 1.2 | 10.8 | 0.3 | -0.5 | 3.8
CCOc1ccc(NS(=O)(=O)c2ccc(NC(=O)[C@@H]3CCCC[C@@H]3C(=O)O)cc2)cc1 | 0.6 | 4.2 | 3.6 | 2.1 | 3.7 | -1.0 | 2.7 | -5.7
CCOc1ccc(S(=O)(=O)NCCC(=O)N2CCCN(C)CC2)cc1 | 1.5 | -5.1 | -1.5 | 2.5 | -0.2 | 0.5 | 6.1 | -4.8
O=C(NCCCN1CCOCC1)c1ccc(CS(=O)(=O)Cc2ccc(Cl)cc2)o1 | -0.3 | -3.3 | -1.3 | 6.6 | 5.8 | -4.5 | 4.1 | 1.0
Cc1ccc(NS(=O)(=O)c2cccc(C(=O)N3CCCC(C)C3)c2)cc1 (stereo not given) | 0.1 | 3.8 | 6.7 | 18.3 | 12.2 | -1.1 | 7.9 | 26.1
COc1cccc(/C(O)=C2/C(=O)C(=O)N(Cc3cccnc3)C2c2ccco2)c1 (stereo not given) | 1.1 | -4.0 | 0.2 | 0.2 | -7.1 | 2.4 | 6.4 | 1.8
O=C(COC(=O)c1ccc(S(=O)(=O)Nc2ccccc2)cc1)NCC1CCCO1 (stereo not given) | -0.4 | 0.9 | 3.0 | -2.5 | -0.1 | -2.8 | -1.8 | 1.2
Cc1nnc(SCC(=O)Nc2ccc3c4c(cccc24)CC3)n1C | -2.1 | -3.6 | 20.9 | 12.2 | 2.4 | 4.0 | 2.9 | 14.7

Assay outcomes from PubChem.

These rows are one share of the data, so the mix of outcomes need not match the whole.
